# Compound activity from PubChem BioAssay.
# A1 inh – A1 inhibition; MEF A1-2A-BIM cells, caspase-Glo luminescence, 3 h; percent of clofoctol signal, DMSO as zero; caspase activation, % (test concentration not listed); 21,000 compounds, 0.51% hits;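 active = most replicate scores above 10, or exactly half above 10 with mean activity above 10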;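 note: effector caspase 3 and 7 activity cleaving a DEVD luciferin substrate; 50 nL library stock added to about 30 µL; numbers are from one replicate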
# BJeLR viability – compounds reducing viability of BJeLR cells | 30,000 compounds, 0.64% hits | BJeLR fibroblasts viability, CellTiterGlo ATP luminescence, 48 h; HRASV12, hTERT and SV40 LT/ST transformed | viability loss activity score, % (test concentration not listed); in the data active = viability loss activity score above about 50%; about a fifth of its hits are not listed in these tables;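 note: higher score means fewer live cells and less ATP luminescence; stock transfer was 50 or 100 nL into about 30 µL; 0% = vehicle wells and 100% = a reference killing control; one replicate is shown; the record names a cut of 85%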
# The depositor's hits bear a star; x = not tested or not shown. A portion of the library; rates above refer to the full screens.
SMILES,A1 inh,BJeLR viability
O=C(/C=C/c1ccc(O)cc1)OC[C@H]1O[C@@H](O[C@@H]2OC=C[C@H]3[C@H](O)[C@@H]4O[C@]4(CO)[C@@H]23)[C@H](O)[C@@H](O)[C@@H]1O,-0.6,1.0
COCc1nc2c([nH]1)C(c1ccccc1COc1ccc(Cl)cc1)C(C#N)=C(N)O2 (stereo not drawn),-1.5,0.0
Cc1ccc(S(=O)(=O)Nc2ccc3c(c2)C(=O)N([C@@H](C)CO)C[C@@H](C)[C@@H](CN(C)C(=O)Nc2c(C)noc2C)O3)cc1,0.0,2.3
c1ccc(-c2cc3c(N4CCc5ccccc54)ncnc3s2)cc1,0.4,14
C[C@@H]1CN([C@@H](C)CO)C(=O)c2cc(NC(=O)NC3CCCCC3)ccc2O[C@@H]1CN(C)Cc1ccc(Oc2ccccc2)cc1,0.8,0.6
COC(=O)c1c(C)oc2ccc(N(C(C)=O)S(=O)(=O)c3ccc4ccccc4c3)cc12,-0.6,5.6
O=C(O)CC1(CC(=O)N2CCN(C(c3ccccc3)c3ccccc3)CC2)CCCC1,0.6,-0.4
CCC(C)NC(=O)CSc1nc2ccsc2c(=O)n1Cc1ccc(OC)cc1 (stereo not drawn),-1.0,2.7
Cc1ccc(S(=O)(=O)Nc2cccc3c2O[C@@H](CN(C)C(=O)NC2CCCCC2)[C@@H](C)CN([C@@H](C)CO)C3=O)cc1,x,-5.8
CCOC(=O)N1CCN(C(=O)CN(c2cc(C(F)(F)F)ccc2Cl)S(C)(=O)=O)CC1,-0.3,3.6
Cc1ccc(CSCc2ccc(C(=O)NC3CCCC3)o2)cc1,0.7,3.3
CC(NC(=O)CC12CC3CC(CC(C3)C1)C2)C(=O)O (stereo not drawn),x,3.6
COc1ccc(C2C(C(=O)N3CCCCC3)c3ccccc3C(=O)N2Cc2ccc(F)cc2)cc1 (stereo not drawn),x,7.5
COc1cc(OC)c2c(=O)c(-c3ccccc3)coc2c1,-0.2,-2.7
CCCCN(C(=O)c1ccccc1)C1CC2CCC(C1)N2C (stereo not drawn),-0.6,-0.8
CC(=O)OC[C@H]1O[C@@H](n2cc(C)c(=O)[nH]c2=O)C[C@@H]1OC(C)=O,0.5,4.4
Cc1noc(C)c1NC(=O)Nc1cccc2c1O[C@H](CN(C)Cc1ccc(C(F)(F)F)cc1)[C@H](C)CN([C@@H](C)CO)C2=O,x,3.3
O=C(Oc1cccc(C(F)(F)F)c1)c1cc2ccc3ccccc3c2s1,0.1,0.3
COc1ccccc1Nc1c2c(nc3ccc(NC(=O)/C=C/c4cccs4)cc13)CCCC2,x,21
COC(=O)c1ccccc1N(C)C(=O)c1cccc(S(=O)(=O)N2CCCCC2)c1,0.1,-2.2
CC(C)NC(=O)Nc1cccc2c1O[C@@H](CN(C)Cc1ccc(-c3ccccc3)cc1)[C@@H](C)CN([C@H](C)CO)C2=O,x,-2.7
COC(=O)c1ccc(C2C(Oc3ccccc3)C(=O)N2CCc2ccc(OC)c(OC)c2)cc1 (stereo not drawn),x,1.8
CCc1cccc(NC(=O)C2c3ccccc3Oc3ccccc32)c1,-0.3,0.5
COC(=O)C[C@H]1C(C)(C)[C@@H](OC(C)=O)[C@@H]2CC3=C4CC(=O)O[C@@H](c5ccoc5)[C@]4(C)CCC3[C@@]1(C)C2=O (stereo partly drawn),-0.1,6.9
O=C(NCc1ccccc1)c1ccc(CS(=O)c2ccccc2)o1 (stereo not drawn),x,-3.4
COc1ccc2ccc(=O)oc2c1CC(O)C(C)(C)O (stereo not drawn),0.6,3.8
C[C@@H]1CN([C@@H](C)CO)C(=O)c2cccc(NC(=O)C3CC3)c2O[C@H]1CN(C)CC1CCCCC1,x,-4.4
Cc1cc(NC(=O)C(CC(C)C)NC(=O)C2CCC(C)CC2)ccc1Br (stereo not drawn),x,0.2
C[C@@H]1CN([C@@H](C)CO)C(=O)c2cc(NS(=O)(=O)c3ccc(Cl)cc3)ccc2O[C@@H]1CN(C)C(=O)Nc1ccc2c(c1)OCO2,0.3,-0.9
C[C@H]1CN([C@@H](C)CO)C(=O)c2cc(N(C)C)ccc2O[C@@H]1CN(C)S(C)(=O)=O,-0.4,-0.8
C[C@H]1CN([C@@H](C)CO)C(=O)c2cc(NC(=O)C3CCCCC3)ccc2O[C@H]1CN(C)S(=O)(=O)c1ccc(Cl)cc1,0.1,-0.1
COc1ccc(NC(=O)Nc2cccc3c2O[C@H](CN(C)S(=O)(=O)c2ccc(F)cc2)[C@@H](C)CN([C@H](C)CO)C3=O)cc1,x,0.7
C[C@H]1CN([C@@H](C)CO)C(=O)c2cc(NC(=O)c3ccncc3)ccc2O[C@H]1CN(C)Cc1ccc(Oc2ccccc2)cc1,0.3,-9.2
C[C@H]1CN([C@@H](C)CO)C(=O)c2cccc(NC(=O)Nc3ccccc3)c2O[C@@H]1CN(C)Cc1ccc(Oc2ccccc2)cc1,x,-5.6
C[C@@H]1CN([C@H](C)CO)C(=O)c2cc(NC(=O)Nc3ccc4c(c3)OCO4)ccc2O[C@H]1CN(C)S(=O)(=O)c1cn(C)cn1,0.2,4.7
Cc1noc(C)c1NC(=O)Nc1cccc2c1O[C@H](CN(C)C(=O)Nc1ccc3c(c1)OCO3)[C@@H](C)CN([C@H](C)CO)C2=O,x,-4.3
CCc1ccc(NC(=O)CCNS(=O)(=O)c2cccc3nsnc23)cc1,x,1.0
CCN(CC)c1ncn(Cc2c(Cl)cccc2Cl)c2ncnc1-2,-0.1,-1.5
Cc1ccc2c(c1)c1c3n2CCN(C=O)C3CCC1 (stereo not drawn),0.4,-4.2
C[C@@H]1CN([C@@H](C)CO)C(=O)c2cc(NS(=O)(=O)c3ccc(F)cc3)ccc2O[C@@H]1CN(C)Cc1ccc(C(=O)Nc2ccccc2N)cc1,x,18

# Another view of two compounds above.
Cc1noc(C)c1NC(=O)Nc1cccc2c1O[C@H](CN(C)C(=O)Nc1ccc3c(c1)OCO3)[C@@H](C)CN([C@H](C)CO)C2=O
  A1 inh: x
  BJeLR viability: -4.3

CCc1ccc(NC(=O)CCNS(=O)(=O)c2cccc3nsnc23)cc1
  A1 inh: x
  BJeLR viability: 1.0

# Next entries.
SMILES,A1 inh,BJeLR viability
O=C(C1CCCN(Cc2ccco2)C1)N1CCCCCC1 (stereo not drawn),0.8,0.9
C[C@@H]1CN([C@@H](C)CO)C(=O)c2cc(NC(=O)CCN3CCOCC3)ccc2O[C@@H]1CN(C)CC1CCCCC1,0.0,-1.4
C[C@@H]1CN([C@H](C)CO)C(=O)c2cccc(NS(=O)(=O)c3cn(C)cn3)c2O[C@H]1CN(C)S(=O)(=O)c1ccccc1,x,-0.8
C[C@@H]1CN([C@H](C)CO)C(=O)c2cc(NS(=O)(=O)c3cccs3)ccc2O[C@@H]1CN(C)CC1CCCCC1,-0.6,-1.8
CC(C)(C)NC(=O)c1ccc(-n2nc(C(F)(F)F)c3c2-c2ccoc2CC3)cc1,-0.5,-3.6
Cc1cc(C)nc(NC(N)=NCc2ccccc2Cl)n1,-0.7,77*
C[C@H](CO)N1C[C@H](C)[C@@H](CN(C)C(=O)Nc2cccc3ccccc23)Oc2ccc(NC(=O)Cc3ccccc3)cc2C1=O,-0.4,2.4
COC(=O)C[C@H]1C(C)(C)C2(Cl)O[C@@]34CC2C(=O)[C@]1(C)C3CC[C@]1(C)C4=CC(=O)O[C@H]1c1ccoc1 (stereo partly drawn),0.1,-4.1
CCC(C(=O)NCc1cccc(OC)c1OC)n1sc2ccccc2c1=O (stereo not drawn),0.4,-1.6
Cc1ccc2oc(=O)c3cc(C(=O)N(CC(C)C)CC(C)C)sc3c2c1,x,-2.2
CNC[C@H]1Oc2c(NS(=O)(=O)c3ccccc3)cccc2C(=O)N([C@H](C)CO)C[C@@H]1C,x,0.3
Oc1cccc2ccc[n+](CC(O)Cn3c4ccccc4c4ccccc43)c12 (stereo not drawn),0.4,2.4
C[C@@H]1CN([C@H](C)CO)C(=O)c2cc(NC(=O)NC3CCCCC3)ccc2O[C@@H]1CN(C)Cc1ccc(C(F)(F)F)cc1,0.6,4.5
C[C@H]1CN([C@@H](C)CO)C(=O)c2cccc(NC(=O)Nc3ccc(F)cc3)c2O[C@H]1CN(C)C(=O)Nc1ccc(F)cc1,x,-0.6
O=C(COc1ccccc1)NCC(=O)Nc1nc(CC23CC4CC(CC(C4)C2)C3)cs1,0.6,0.2
Cc1cc(C)nc(SCC(=O)c2ccccc2)n1,-0.3,8.7
C[C@@H]1CN([C@H](C)CO)C(=O)c2cccc(NC(=O)c3ccc(-c4nccs4)cc3)c2O[C@H]1CN(C)S(=O)(=O)c1ccc(F)cc1,x,0.0
C[C@@H]1CN([C@@H](C)CO)C(=O)c2cc(NC(=O)CCN3CCOCC3)ccc2O[C@@H]1CN(C)C(=O)Nc1ccc(F)cc1,0.1,-0.6
C=CCN1CCc2c(cc(O)c(O)c2Br)[C@@H](c2ccccc2)C1,0.7,-0.9
CC(C)NC(=O)N(C)C[C@H]1Oc2c(NC(=O)C3CC3)cccc2C(=O)N([C@@H](C)CO)C[C@@H]1C,x,2.7
Cc1noc(C)c1NC(=O)Nc1ccc2c(c1)C(=O)N([C@H](C)CO)C[C@@H](C)[C@H](CN(C)Cc1ccc3c(c1)OCO3)O2,0.2,4.1
CCOC(=O)C1CCN(c2ncnc3cc(OC)c(OC)cc23)CC1,x,3.9
C=C(COC(C)=O)[C@@H]1Cc2cc(C(C)=O)ccc2O1,0.3,-3.1
C[C@@H]1CN([C@H](C)CO)C(=O)c2cccc(NC(=O)Nc3ccccc3)c2O[C@H]1CN(C)S(=O)(=O)c1cn(C)cn1,x,-1.0
C[C@H](CO)N1C[C@H](C)[C@@H](CN(C)S(=O)(=O)c2ccc(Cl)cc2)Oc2ccc(NC(=O)C3CCCCC3)cc2C1=O,-0.5,-5.2
C[C@@H]1CN([C@H](C)CO)C(=O)c2cc(NC(=O)C3CCCCC3)ccc2O[C@H]1CN(C)Cc1ccc(Cl)c(Cl)c1,0.7,-1.3
Cc1ccc(S(=O)(=O)N(C)C[C@@H]2Oc3ccc(NC(=O)Nc4c(C)noc4C)cc3C(=O)N([C@H](C)CO)C[C@@H]2C)cc1,0.1,0.3
COc1ccc(CNC(=O)c2c(C)oc3c2cc(OC(C)=O)c2ccccc23)cc1,0.4,-4.5
O=C(OCCSc1cnc2ccccc2n1)c1cc(Cl)cc(Cl)c1,0.0,-0.9
CCCNC(=O)N(C)Cc1ccccc1,1.3,-2.0
Cc1ccc(SCC(C)CNC(=O)Nc2ccccc2)cc1 (stereo not drawn),-0.6,-2.4
C[C@H](CO)N1C[C@H](C)[C@H](CN(C)C(=O)Nc2ccc(F)cc2)Oc2c(NS(=O)(=O)c3ccc(F)cc3)cccc2C1=O,x,-6.4
C[C@H]1CN([C@@H](C)CO)C(=O)c2cccc(NC(=O)Nc3cccc4ccccc34)c2O[C@H]1CN(C)S(C)(=O)=O,x,6.8
CC1(CO)CCCC2(C)C3=C(CC(=O)C12)C(=O)OC3 (stereo not drawn),0.5,27
CC(C)NC(=O)Nc1ccc2c(c1)C(=O)N([C@@H](C)CO)C[C@H](C)[C@H](CN(C)Cc1ccc(C(=O)O)cc1)O2,0.1,1.1
C[C@H](CO)N1C[C@H](C)[C@@H](CN(C)S(=O)(=O)c2ccc(Cl)cc2)Oc2c(NC(=O)c3ccncc3)cccc2C1=O,x,0.8
C[C@H]1CN([C@@H](C)CO)C(=O)c2cc(NC(=O)Cc3ccccc3)ccc2O[C@H]1CN(C)Cc1ccc(-c2ccccc2)cc1,-0.7,2.2
COc1ccc(NC(=O)N(C)C[C@@H]2Oc3c(NC(=O)C4CC4)cccc3C(=O)N([C@@H](C)CO)C[C@H]2C)cc1,x,0.2
CCC(Sc1nc2c(c(=O)[nH]1)CCC2)C(=O)Nc1cccc(OC)c1 (stereo not drawn),-0.3,2.2
O=C(CCn1c(=O)sc2ccccc21)NCCCc1ccccc1,x,-0.7

# Part of the list above in order of SMILES length, largest number first:
SMILES,A1 inh,BJeLR viability
C[C@@H]1CN([C@@H](C)CO)C(=O)c2cccc(NC(=O)C3CC3)c2O[C@H]1CN(C)CC1CCCCC1,x,-4.4
COC(=O)c1c(C)oc2ccc(N(C(C)=O)S(=O)(=O)c3ccc4ccccc4c3)cc12,-0.6,5.6
Cc1cc(NC(=O)C(CC(C)C)NC(=O)C2CCC(C)CC2)ccc1Br (stereo not drawn),x,0.2
CCc1ccc(NC(=O)CCNS(=O)(=O)c2cccc3nsnc23)cc1,x,1.0
O=C(NCc1ccccc1)c1ccc(CS(=O)c2ccccc2)o1 (stereo not drawn),x,-3.4
Cc1ccc(CSCc2ccc(C(=O)NC3CCCC3)o2)cc1,0.7,3.3

# (continued)
SMILES,A1 inh,BJeLR viability
C[C@@H]1CN([C@@H](C)CO)C(=O)c2cccc(NS(C)(=O)=O)c2O[C@H]1CN(C)CC1CC1,x,-3.3
C[C@@H]1CN([C@H](C)CO)C(=O)c2cc(NC(=O)CCN3CCOCC3)ccc2O[C@H]1CN(C)S(=O)(=O)c1cccs1,0.0,-0.9
CCC(=O)NC(c1ccco1)c1cc(Cl)c2cccnc2c1O (stereo not drawn),0.3,15
C[C@H]1CN([C@@H](C)CO)C(=O)c2cccc(NS(=O)(=O)c3ccc(F)cc3)c2O[C@@H]1CN(C)S(=O)(=O)c1cn(C)cn1,x,2.5
